VDR inhibitor: Inhibitors of the vitamin D receptor (VDR): qHTS. Vitamin D3 receptor (Homo sapiens), P11473. VDR-SRC2-3 peptide fluorescence polarization, 2 h. Potency, µM, inactives show max response, negative = inhibition, actives largely listed as inhibitors. 400,000 tested, 0.93% active; active means well fitted inhibition curve with a large enough effect; inconclusive means small, poorly fitted or top-dose-only effect, or another doubt; inactive means no such curve, though single readings can be large or run the other way; further: series mostly up to about 120 µM
Target sequence (P11473 whole entry, looked up): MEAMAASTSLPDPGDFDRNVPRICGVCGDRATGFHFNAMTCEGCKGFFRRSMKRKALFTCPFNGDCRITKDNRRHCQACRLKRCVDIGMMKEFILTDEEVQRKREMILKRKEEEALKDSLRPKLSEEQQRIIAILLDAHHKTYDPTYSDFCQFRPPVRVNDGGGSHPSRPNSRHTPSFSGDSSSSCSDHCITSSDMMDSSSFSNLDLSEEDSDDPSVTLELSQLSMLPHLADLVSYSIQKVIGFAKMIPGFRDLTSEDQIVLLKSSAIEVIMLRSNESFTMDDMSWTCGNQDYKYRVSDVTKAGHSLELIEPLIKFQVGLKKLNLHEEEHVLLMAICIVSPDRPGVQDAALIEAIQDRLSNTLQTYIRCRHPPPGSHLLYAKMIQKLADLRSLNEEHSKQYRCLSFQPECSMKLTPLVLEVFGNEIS
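The screen uses fluorescence polarization to detect compounds that interfere with recruitment of the SRC2-3 coactivator peptide to VDR; plates are read after 2 h at room temperature.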
Active calls of the source: *; ? = inconclusive; & = joins results of further samples. On the % scale 0 is the no-effect control and ±100 the full control effect; potency means the concentration at half of the fitted maximal effect.

The opening 3 entries (preview)
# | Structure | VDR inhibitor
1 | O=C1NCCC12C(=O)Nc1ccccc12 (configuration not stated) | -1%
2 | COc1ccc(Nc2nc(Nc3ccc(OC)cc3)nc(SC3=NCCS3)n2)cc1 | -16%
3 | CCCCCCCC/C=C\CCCCCCCC(=O)NCCc1ccc(O)c(O)c1 | ?

This part in full, from the first entry:
# | Structure | VDR inhibitor
1 | O=C1NCCC12C(=O)Nc1ccccc12 (configuration not stated) | -1%
2 | COc1ccc(Nc2nc(Nc3ccc(OC)cc3)nc(SC3=NCCS3)n2)cc1 | -16%
3 | CCCCCCCC/C=C\CCCCCCCC(=O)NCCc1ccc(O)c(O)c1 | ?
4 | CN1C(=O)c2ccc(NC(=O)c3c(C(=O)O)cccc3[N+](=O)[O-])cc2C1=O | 5%
5 | CCOC(=O)N1CCC(NC(=O)Cn2ncc3c2-c2cc(C)ccc2OC3)CC1 | 3%
6 | O=C(O)Cn1ncc2c1-c1ccoc1CC2 | -20%
7 | COc1ccc2oc(C(=O)OCC(=O)NC(=O)NC(C)C)c(C)c2c1 | -6%
8 | CCOc1ccccc1NC(=O)C1CCCN1S(=O)(=O)c1ccc2nc(-c3ccccc3)[nH]c2c1 (configuration not stated) | 0%
9 | CC(=O)N1c2ccccc2N2C(c3c(C)c(C)cc(C)c3C)=NON12 | -12%
10 | COC(=O)Cn1c(=NC(=O)c2cc(OC)c(OC)c(OC)c2)sc2cc(OC)ccc21 | -4%
11 | CCOC(=O)Cn1c(Br)nc2c1c(=O)[nH]c(=O)n2C | 0%
12 | CCOC(=O)C1CCN(C(=O)Cn2cnc3sc(C)c(S(=O)(=O)N4CCOCC4)c3c2=O)CC1 | 1%
13 | COc1ccc(C(=O)NCc2cccc(Cl)c2)cc1S(=O)(=O)N1CCOCC1 | -3%
14 | COc1ccc(CNC(=O)CN2CCN(S(=O)(=O)c3c(C)c(C)cc(C)c3C)CC2)cc1OC | 3%
15 | O=C(Cc1n[nH]c(=O)c2ccccc12)OCc1c(Cl)cccc1Cl | 26%
16 | CCN(CC)CCN1C(=O)c2ccccc2NC1c1ccc(N(C)C)cc1 (configuration not stated) | 1%
17 | Cc1ccc(-c2nc(C#N)c(NCCN3CCCCC3)o2)cc1 | 4%
18 | Cc1nc(-c2ccc(C#N)cc2)cs1 | -11%
19 | O=C(O)c1cc2ccc3ccccc3c2oc1=O | 3%
20 | O=C(c1ccc2c(=O)n(-c3ccccc3)c(=S)[nH]c2c1)N1CCN(c2ccccc2)CC1 | -9%

2 of the compounds above, field by field:
[11] CCOC(=O)Cn1c(Br)nc2c1c(=O)[nH]c(=O)n2C
- VDR inhibitor = 0%
[6] O=C(O)Cn1ncc2c1-c1ccoc1CC2
- VDR inhibitor = -20%

New compounds follow:
# | Structure | VDR inhibitor
21 | Oc1ccc(Br)cc1/C=N/n1cnc2ccccc21 | -15%
22 | Cc1cc(C)n(-c2ccc(F)cc2)c(=O)c1C(=O)O | 17%
23 | CCCCOc1ccc(/C=C/C(=O)OCC(=O)c2c(N)n(C)c(=O)n(C)c2=O)cc1OCC | -1%
24 | O=c1ncn(-c2ccc(F)cc2)c2ncccc12 | -2%
25 | O=S(=O)(c1ccc(C2CCCCC2)cc1)N1CCN(c2ccc(Cl)c(Cl)c2)CC1 | 0%
26 | Cn1c(=O)[nH]c(=O)c2c1nc(Br)n2CCCSc1nc2ccccc2o1 | -4%
27 | Cc1ccc([N+](=O)[O-])cc1-c1ccc(/C=N/NC(=O)c2cc3c(ccc4ccccc43)o2)o1 | -1%
28 | C=CCn1c(N)cc(=O)nc1SC(CC)C(=O)Nc1ccc(C(C)=O)cc1 (configuration not stated) | -1%
29 | COc1ccc(S(=O)(=O)Nc2ccccc2OC)cc1N=Nc1c(O)[nH]c(=S)[nH]c1=O | 2%
30 | COc1ccc(S(=O)(=O)NC2CC(C)(C)NC(C)(C)C2)cc1C(C)C | 9%
31 | Cc1c(OC(C)C(=O)NCC2CCC(C(=O)O)CC2)ccc2c(-c3ccccc3)cc(=O)oc12 (configuration not stated) | -20%
32 | Cc1cc(N2C(=O)C3CC=CCC3C2=O)cc(C)c1Br (configuration not stated) | -7%
33 | COC(=O)c1sccc1NC(=O)CCC1CCCC1 | 5%
34 | CS(=O)(=O)N(CC(=O)NCc1ccco1)c1cc(C(F)(F)F)ccc1Cl | 15%
35 | O=C(CN(Cc1ccccc1)S(=O)(=O)c1ccccc1)N1CCOCC1 | -16%
36 | COc1ccc(S(=O)(=O)N(C(=O)c2ccncc2)c2ccc(OC(=O)c3ccncc3)cc2)cc1 | 12%
37 | O=C(C=Cc1ccccc1)N1CCCCC1 | 1%
38 | CCn1cc(C(=O)NCc2cccnc2)c(=O)c2cc(F)c(N3CCN(C(=O)c4ccco4)CC3)cc21 | 0%
39 | NC(=O)Cn1cc(C(=O)c2cccs2)c2ccccc21 | 6%
40 | NC(=O)Cn1c(=O)n(CCC(=O)NCCSCc2ccccc2)c(=O)c2ccccc21 | -15%
41 | Cc1cc(C)cc(C(=O)NC2CC(C)(C)NC(C)(C)C2)c1 | 9%
42 | COc1cc(/C(C)=N\NC(=O)CSc2nc3ccccc3n2C)ccc1O | 14%
43 | O=C(O)C1CCCCN1C(=O)c1ccc(S(=O)(=O)N2CCCCCC2)cc1 (configuration not stated) | -1%
44 | Cc1csc(NC(=O)NCC2CCCC(CNC(=O)Nc3nc(C)cs3)C2)n1 (configuration not stated) | 5%
45 | Cc1ccc(CNC(=O)Cn2cnc3c(NCc4ccccc4)ncnc32)o1 | -6%
46 | Cc1ccsc1C(=O)NNC(=O)c1cccc(S(=O)(=O)N2CCCC2)c1 | -16%
47 | N=C(N)c1ccc(N)cc1 | -7%&1%
48 | CC(=O)N/N=C/c1ccccc1OCCOc1cccc(C)c1 | -8%
49 | O=[N+]([O-])c1ccc(N=Nc2ccc(O)cc2O)cc1 | 15%
50 | CCC(=O)NNc1ncnc2c1cnn2C | 0%
51 | O=S(=O)(c1ccc(NC(=S)NN=C(Cc2ccccc2)Cc2ccccc2)cc1)N1CCOCC1 | 9%
52 | CCC(C)[C@H](NC(=O)NCc1cccs1)C(=O)OC (some centres not stated) | -3%
53 | Cc1ccc(N2CC(C(=O)NC(C)CCc3ccccc3)CC2=O)cc1 (configuration not stated) | 8%
54 | CCOC(=O)C1CCN(C(=O)COc2ccc(Br)cc2C)CC1 | 19%
55 | COc1ccc(CNC(=O)Cn2cnc3c(NCc4ccccc4)ncnc32)cc1 | -14%
56 | O=C(NCC(c1ccco1)N1CCCC1)c1ccc(S(=O)(=O)Nc2ccccc2Cl)cc1 (configuration not stated) | -10%
57 | CN(C)S(=O)(=O)c1ccc(C(=O)Nc2ccc3nc(N4CCOCC4)sc3c2)cc1 | 12%
58 | Cc1cccc2nc(CSc3nncn3-c3ccccc3)cn12 | 1%
59 | COc1cc(NC(=O)Cn2cnc3c(SC)nc(N)nc32)cc(OC)c1OC | -20%
60 | COc1ccc(NC(=O)C2CCN(c3nc(C)nc4c3CCC4)CC2)cc1 | -10%
61 | C=CCN(c1ccccc1)S(=O)(=O)c1cccc(C(=O)Nc2cccc(C)n2)c1 | ?
62 | COc1ccc(Br)cc1C(=O)NC(=S)Nc1ccc2[nH]c(=O)[nH]c2c1 | 0%
63 | CCOc1ccc(-c2c(C(=O)N/N=C/c3ccc(C)o3)nnn2-c2nonc2N)cc1 | -12%
64 | Cc1ccc(N=Nc2c(O)[nH]c3ccc(F)cc23)cc1 | -4%
65 | CN1CCN(c2nc(-c3ccccc3)nc(-c3ccc(F)cc3)c2C#N)CC1 | -1%
66 | C=C(C)C1CC=C(C)/C(=N/NC(=O)COc2ccccc2Cl)C1 (configuration not stated) | 0%
67 | CN(CC(=O)NC1CCN(Cc2ccccc2)CC1)S(=O)(=O)c1ccc2c(c1)c(=O)n(C)c(=O)n2C | -13%
68 | c1cc(-c2ccncc2)ccn1 | -18%
69 | CCOC(=O)/C=C1\CC(=O)Nc2cc(C)c(C)cc2N1 | 2%
70 | O=C(Nc1ccccc1Cl)c1ccc2ccccc2c1 | 0%
71 | Cn1c(=O)c(C(=O)NNC(=O)c2ccc(Br)cc2)c(O)c2ccccc21 | 6%
72 | O=C(COC(=O)c1cccc(C(F)(F)F)c1)NCc1ccc(Cl)cc1 | -10%
73 | CC(C)COc1nc2ccccc2c(=O)n1OCC(=O)O | 21%
74 | CC(=O)Nc1ccc(NC(=O)COC(=O)c2ccccc2SCC(=O)N2CCCC2)cc1 | 11%
75 | CC1=C(C(=O)Nc2ccc(C)cc2C)C(c2cccs2)n2nc(SCc3ccccc3Cl)nc2N1 (configuration not stated) | -10%
76 | O=C1c2cccc3cccc(c23)C(=O)N1c1ccccc1Cl | -20%
77 | O=C(Cc1cccc(NC(=O)C2CCN(C(=O)C3CCCCC3)CC2)c1)Nc1cccc(C(=O)N2CCCCC2)c1 | -11%
78 | CCCCCCCCCc1nc2sc3c(c2c(=O)n1NC(=O)c1ccc([N+](=O)[O-])cc1)CC(C)(C)OC3 | 1%
79 | COc1cc(NC(=O)CSc2nnc3c(n2)[nH]c2ccc(S(=O)(=O)NC(C)C)cc23)cc(OC)c1OC | -3%
80 | CCOc1ccccc1C(=O)N1CCCCC1CCN1CCOCC1 (configuration not stated) | 20%

Exported field by field: entries from further up.
79) COc1cc(NC(=O)CSc2nnc3c(n2)[nH]c2ccc(S(=O)(=O)NC(C)C)cc23)cc(OC)c1OC
  VDR inhibitor: -3%
80) CCOc1ccccc1C(=O)N1CCCCC1CCN1CCOCC1 (configuration not stated)
  VDR inhibitor: 20%

Retrieved by structure from the list above:
# | Structure | VDR inhibitor
75 | CC1=C(C(=O)Nc2ccc(C)cc2C)C(c2cccs2)n2nc(SCc3ccccc3Cl)nc2N1 (configuration not stated) | -10%
72 | O=C(COC(=O)c1cccc(C(F)(F)F)c1)NCc1ccc(Cl)cc1 | -10%

(next part)
# | Structure | VDR inhibitor
81 | COC(=O)[C@H]1O[C@@H](c2cc(OC)c(C)c(OC)c2OCc2ccccc2)[C@H](C)[C@@H]2O[C@]12C | 0%
82 | O=c1nc2ccccc2c2n1CC(CN1CCN(c3ccc(F)cc3)CC1)N2 (configuration not stated) | 28%
83 | Cc1cc(C)cc(OCC(O)CN2CC(C)OC(C)C2)c1 (configuration not stated) | -3%
84 | CCCNC(=O)c1cccc(Br)c1 | -16%
85 | CC(Oc1ccccc1)c1ccnc2nc(N3CCOCC3)nn12 (configuration not stated) | 13%
86 | Cn1c2ccccc2c2cc(/C=N/NC(=O)c3cc(O)cc(O)c3)ccc21 | -2%
87 | COc1ccc(-c2n[nH]c(C)c2-c2ccc(Cl)cc2)c(O)c1 | 2%
88 | CN(C)CCCn1c(N)c(C#N)c2nc3ccccc3nc21 | 18%
89 | O=C1N(Cc2cccnc2)C[C@@H]2C[C@@H](c3cccc(Oc4ccccc4)c3)N3CCC[C@@]123 | 5%
90 | CCOc1ccc(NC(=O)C2CCC(CNc3c(N4CCOCC4)c(=O)c3=O)CC2)cc1 (configuration not stated) | -26%
91 | O=C(NC1CC1)C1CCN(S(=O)(=O)c2ccc(Cl)c([N+](=O)[O-])c2)CC1 | 6%
92 | CCc1ccccc1Nc1nc(-c2cccnc2)cs1 | 3%
93 | CCOCCCNC(=O)C(Cc1ccccc1)NC(=O)c1ccco1 (configuration not stated) | 6%
94 | COC(=O)CSc1nnc2cc(C)c3ccccc3n12 | 8%
95 | COCc1ccc(CN2CCCC(CO)(Cc3ccccc3)C2)o1 (configuration not stated) | -2%
96 | CC1=C(C(=O)N2CCCCC2)C(c2cccs2)NC(=O)N1 (configuration not stated) | 1%
97 | CSc1ccccc1NC(=O)CN(C)C(=O)/C=C/c1ccccc1 | -12%
98 | Cc1cc2ccccn2c1C(=O)c1ccc([N+](=O)[O-])cc1[N+](=O)[O-] | -1%
99 | COc1ccc(N2CCN(C(=O)c3ccc(N4C(=O)NC5CC4(C)Oc4ccccc45)cc3)CC2)cc1 (configuration not stated) | 5%
100 | COc1ccccc1NC(=S)N(Cc1cccs1)C1CCCC1 | 11%
101 | COc1ccc(C(CNC(=O)c2cccc(NS(=O)(=O)c3ccccc3)c2)N2CCCC2)cc1 (configuration not stated) | 1%
102 | O=C1NC(=S)NC1Cc1ccc(O)cc1 (configuration not stated) | 10%
103 | CC(C)(C)c1ccc(C(=O)N2CCN(c3ccc(N4CCOCC4)nn3)CC2)cc1 | -1%
104 | CCOC(=O)c1c(C)[nH]c(C)c1C(=O)COC(=O)/C=C/c1ccc(Cl)cc1 | 3%
105 | COC(=O)c1ccc2c(c1)C(=O)N(C1CCCCC1)C2=O | -6%
106 | CCC(=O)OC1CC(C)N(C(=O)c2ccccc2)c2ccc(C)cc21 (configuration not stated) | 16%
107 | COC(=O)Cn1cc(C(=O)C2CC2)c2ccccc21 | -1%
108 | COc1ccccc1-c1nnc(SCC(=O)c2c(N)n(C3CC3)c(=O)[nH]c2=O)n1C | -14%
109 | CCSc1nc2sc3c(c2c(=O)n1-c1ccc(OC)cc1)CCN(C)C3 | -2%
110 | Cc1nn(-c2ccccc2)c(OC(=O)c2ccccc2F)c1S(=O)(=O)c1ccccc1 | -21%
111 | COc1cccc(CCNC(=O)c2c(O)nc3c(C)cccn3c2=O)c1 | 4%
112 | CCn1nc(C)c(NC(=O)/C=C/c2ccc(OC)c(COc3ccc(Cl)cc3Br)c2)c1C | 6%
113 | Cc1cc(SCc2ccccc2Cl)nc(=O)[nH]1 | -2%
114 | Cc1ccc(Cl)cc1NC(=O)C(=O)NCCc1sc(-c2ccc(F)cc2)nc1C | 7%
115 | CCN(CC)CC(=O)NN(Cc1ccccc1)c1ccccc1 | -28%
116 | Cc1ccc(NC(=O)CSCC(=O)NC2CCCCC2)cc1 | -12%
117 | O=S1(=O)C[C@@H]2N=C(N/N=C/c3ccccc3)S[C@@H]2C1 | -15%
118 | CCCCNC(=S)NNC(=O)c1nn(C)c(C)c1Cl | 13%
119 | Cc1ccc(N2C(=O)CN(Cc3cccs3)C2=S)cc1C | -20%

Not all compounds are listed; the hit share may differ from the screen's.
